Compound activity from PubChem BioAssay.
rRNA inh HTS: selective bacterial rRNA inhibition in E. coli. E. coli WT GFP vs humanized-ribosome RFP mutants, fluorescence, 24 h; stronger effect = lower value; DMSO median 0, no signal -100. GFP signal change (wild-type ribosome), % (concentration not given with the values). 350,000 compounds, 1.6% hits;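 active means significant combined selectivity score with lowered wild-type GFP, culture density cut under 30%, mutant RFP and density less affected; inactive means any of these conditions unmet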; further: one replicate is shown; some compounds called inactive have numbers as strong as hits
FGF22 binding: binders of recombinant human FGF22 by thermal shift; AID 651658; 340,000 compounds, 1.5% hits; calls only at 9.99 µM; SYPRO orange fluorescence; percent of sucrose octasulfate shift, DMSO zero; Q9HCT0;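 active means melting point raised past a set limit in the mean and every replicate; inconclusive means no clear call; three in four hits are not shown here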
Bfl-1 A1 inh: inhibitors of the anti-apoptotic protein A1, read as caspase activation; MEF A1-2A-BIM cells, Caspase-Glo 3/7 luminescence, 3 h; percent of clofoctol response, vehicle zero; caspase activation, % (concentration not given with the values); 330,000 compounds, 0.066% hits; AID 2462;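 active means over half of replicate activation scores above 10%, or exactly half above 10 with the replicate mean above 10; inconclusive means replicate mean below 10 yet half the replicates above 10; inactive means over half of replicates below 10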;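 further: wells of about 30 µL received 50 nL stock; many hits fall short of the cut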
E coli growth: E. coli growth inhibition; Escherichia coli growth, OD600, 23 h; stronger effect = lower value; OD600 absorbance (test concentration not listed); 330,000 compounds, 0.21% hits; AID 1053175;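 active means OD600 absorbance below the run mean of sample wells minus 3.6 SD, in any replicate, cut at about 0.56 in these data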;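 further: stock transfer was 300 nL into about 60 µL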
T cruzi inh: T. cruzi replication inhibition | T. cruzi beta-gal in NIH3T3, luminescence, 90 h | inhibition, % (test concentration not listed) | 300,000 compounds, 1.4% hits | AID 1885;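 active means mean inhibition across valid replicates above about 55%, limit read from the data; inconclusive means mean below that limit but half or more replicates reach it; inactive means mean below it, under half of replicates reach it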;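 further: signal also drops with host cell toxicity which is not excluded here; 0% = plate median of DMSO wells and 100% = zero luminescence signal; higher percent means less beta-gal luminescence so fewer parasites; stock transfer was 50 nL into about 50 µL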
Beta apoptosis: blocks beta cell apoptosis | INS-1E cytokine-induced death, ATP luminescence, 48 h; percent of positive-control rescue, neutral wells zero | protection from apoptosis, % (concentration not given with the values) | 300,000 compounds, 0.8% hits | AID 435005;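 active means all replicates at 75% or more, or half of them and the mean; inconclusive means half reach 75% but not the mean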;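 further: 0% = cytokine-treated negative control wells and 100% = positive control rescue; higher means more ATP so stronger rescue from cytokine killing; wells of about 40 µL received 100 nL stock; the first replicate is given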
UCH37 inh: inhibitors of human deubiquitinating enzyme UCH37; 330,000 compounds, 0.33% hits; purified proteasome/UCH37, Ub-AMC cleavage fluorescence; inhibition, % (test concentration not listed); AID 588478; Q9Y5K5;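 active means mean of two replicates above 20%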;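 further: 0% = compound-free wells with enzyme and 100% = wells lacking proteasome; stock transfer was 100 nL into about 20 µL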
Target sequence (Q9Y5K5 whole entry, looked up): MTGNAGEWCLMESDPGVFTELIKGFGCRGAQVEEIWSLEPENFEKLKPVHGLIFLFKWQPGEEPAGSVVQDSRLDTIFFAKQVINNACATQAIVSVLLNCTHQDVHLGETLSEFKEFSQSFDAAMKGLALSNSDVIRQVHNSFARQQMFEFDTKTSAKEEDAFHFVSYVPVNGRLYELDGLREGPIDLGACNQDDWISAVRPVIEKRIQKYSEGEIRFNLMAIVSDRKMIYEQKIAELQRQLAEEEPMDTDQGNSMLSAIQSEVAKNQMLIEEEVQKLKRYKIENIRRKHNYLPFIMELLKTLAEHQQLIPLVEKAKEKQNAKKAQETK
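System: Proteasome-associated human UCH37 deubiquitinase; Input: 0.15 nM proteasome in added enzyme buffer; Also added: Ub-AMC substrate from 1 µM stock; Incubation: 30 min compound-proteasome preincubation then 25 min substrate reaction, room temperature; Detection: fluorescence, ex 355 nm, em 460 nm; Read-out: % inhibition of Ub-AMC cleavage fluorescence; Benchmarks: no-proteasome and no-compound wells.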
MLL AF4-AF9 inh: inhibitors of human MLL-AF4/AF9 interaction. inhibition, % at 10 µM. 350,000 compounds, 0.47% hits. P42568. AID 651704. AlphaScreen, biotin-AF4 peptide binding to FLAG-AF9;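 active means every replicate reaching a set inhibition limit, whatever the replicate mean, cut at about 25% in these data; inconclusive means mean inhibition reaches that limit but some replicates miss it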;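 further: 0% = plate neutral control median and 100% = total signal loss; the record names both 10 and 1 µM as test concentration; the first replicate is given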
Target sequence (P42568 whole entry, looked up): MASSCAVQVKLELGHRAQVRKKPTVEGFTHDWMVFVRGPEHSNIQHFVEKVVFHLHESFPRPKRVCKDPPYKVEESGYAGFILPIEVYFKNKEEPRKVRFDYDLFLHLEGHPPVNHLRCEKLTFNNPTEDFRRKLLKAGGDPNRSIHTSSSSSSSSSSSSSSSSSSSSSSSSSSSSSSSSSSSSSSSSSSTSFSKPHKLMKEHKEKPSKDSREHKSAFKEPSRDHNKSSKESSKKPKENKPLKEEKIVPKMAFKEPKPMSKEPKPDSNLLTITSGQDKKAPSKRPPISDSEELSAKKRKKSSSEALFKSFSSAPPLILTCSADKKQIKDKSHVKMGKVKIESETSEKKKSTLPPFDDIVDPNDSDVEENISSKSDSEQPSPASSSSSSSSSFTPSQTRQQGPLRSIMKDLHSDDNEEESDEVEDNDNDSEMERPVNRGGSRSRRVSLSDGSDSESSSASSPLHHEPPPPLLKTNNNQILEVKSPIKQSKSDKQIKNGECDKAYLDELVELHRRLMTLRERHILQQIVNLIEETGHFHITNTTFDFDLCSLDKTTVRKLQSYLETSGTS
rRNA inh HTS OD600: recorded beside rRNA inh HTS, whose call it bears; OD600 change, %; measured here: OD600 growth;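 optical density of the mix in the first replicate; 0 = DMSO median and -100 = no signal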
rRNA inh HTS RFP: second read-out of rRNA inh HTS, no call of its own (marks repeat the call); RFP signal change, %; measured here: RFP humanized mutant strains;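 first replicate; 0 = DMSO median and -100 = no signal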
Active calls of the source: *; i = inactive; ? = inconclusive; nt = no result given. The list is partial (hit frequency here may not be typical).

SMILES	rRNA inh HTS	rRNA inh HTS OD600	rRNA inh HTS RFP	FGF22 binding	Bfl-1 A1 inh	E coli growth	T cruzi inh	Beta apoptosis	UCH37 inh	MLL AF4-AF9 inh
OC(COC(c1ccc(F)cc1)c1ccc(F)cc1)CN1CCCC1 (centres undefined)	5	-7	0.6	i	0.5	0.61	-33	-5	0.1	2.5
COc1cccc(-c2cc(C(F)(F)F)n3ncc(C(=O)O)c3n2)c1	nt	nt	nt	nt	-0.7	0.65	-11	-5	18	nt
COc1ccc(Cl)cc1NC(=O)Nc1ccc(C(=O)N2CCCC2)cc1	4	14	0.2	i	-4.6	0.67	3	5	3.8	-18
O=C(COc1ccccc1F)Nc1ccc(N2CCOCC2)cc1N1CCOCC1	5	10	-1.1	i	nt	0.66	nt	nt	4.6	6.2
Cc1ccccc1NC(NC(=O)c1cccnc1)C(Cl)(Cl)Cl (centres undefined)	-29	-34	-12	i	0.8	0.68	13	-4	0.0	0.6
Clc1ccc(CN2CCCCCC2)cc1	11	12	-0.1	i	0.1	0.62	8	-5	2.7	-2.7
COc1cc(OC)c(C2C3=C(CCCC3=O)Nc3nc4ccccc4n32)cc1OC (centres undefined)	nt	nt	nt	nt	-0.6	0.74	22	-13	-1.4	nt
CCOc1ccc(/C=C(/NC(=O)c2ccc(Cl)cc2)C(=O)O)cc1OCC	5	4	0.2	i	0.0	0.7	-34	-1	6.9	-4.5
O=C1c2oc3ccc(F)cc3c(=O)c2C(c2ccccc2)N1CC1CCCO1 (centres undefined)	nt	nt	nt	nt	0.3	0.72	6	2	2.9	nt
Cc1cc(C)cc(NC(=O)C2CCCN2S(=O)(=O)c2ccc3c(c2)n(C)c(=O)c(=O)n3C)c1 (centres undefined)	5	6	-0.8	i	-1.0	0.77	-3	1	-0.1	-1.6
CC1CCc2cc(F)ccc2N1C(=O)CSc1nnc2c(n1)[nH]c1ccc(F)cc12 (centres undefined)	6	31	-1.1	i	0.6	0.67	45	41	6.4	9.4
Cc1cc(=O)n2[nH]c(CCC(=O)O)nc2n1	12	7	1.6	nt	1.1	0.67	-2	0	1.0	-88
Cc1cccc(N(CC(=O)NCc2ccco2)C(=O)CCC(=O)Nc2nccs2)c1C	0	0	1.5	i	0.3	0.63	-5	2	4.6	0.1
Cc1cc(C)n(-c2ccc(C(=O)OCC(=O)Nc3ccc(S(N)(=O)=O)cc3)cc2)n1	-4	-12	-0.3	i	?	0.65	nt	-6	-3.9	-0.2
Nc1ccc(S(=O)(=O)NC2=NCCCCC2)cc1	4	-6	1.4	i	0.5	0.64	8	-3	-1.4	-32
CC(=O)Nc1ccc([N+](=O)[O-])c(CS(=O)(=O)c2ccc(C)cc2)c1[N+](=O)[O-]	13	17	-0.4	i	?	0.69	-1	nt	0.3	-1.7
CCc1ccc(NC(=O)c2ccc(C3SCC(=O)N3CCc3ccccc3)cc2)cc1 (centres undefined)	nt	nt	nt	nt	-0.7	0.7	40	19	0.4	nt
CCOC(=O)c1c(C)noc1-c1ccco1	14	1	0.4	i	0.1	0.65	-13	-1	3.0	nt
CCCN(CCC)S(=O)(=O)c1ccc(C(=O)N2CCC(=O)c3ccccc32)cc1	nt	nt	nt	nt	0.8	0.69	5	3	0.4	nt
COc1cccc(-c2cc3nc(-c4ccccc4)cc(=O)n3[nH]2)c1	-18	-12	-4.3	i	-5.4	0.66	2	2	-61	1.1
O=C(Cn1cc([N+](=O)[O-])cn1)Nc1ccccn1	nt	nt	nt	nt	0.8	0.66	-9	-1	3.3	nt
O=C(CCCn1c(=O)oc2ccccc21)N1CCN(c2ccccn2)CC1	1	0	1.6	i	0.8	0.68	1	3	-0.1	1.8
CCN(CC)C(=O)Cn1cc(/C=C(\C#N)C(=O)NC2CC2)c2ccccc21	10	2	-0.4	i	1.0	0.65	-6	-3	0.8	5.2
CN(CC(=O)Nc1ccc(N2CCOCC2)cc1)C(=O)c1cn(-c2ccccc2)nc1-c1ccccc1	2	-1	-1.7	i	1.0	0.68	13	4	-1.2	-1.8
Cc1onc(-c2ccccc2)c1C(=O)NCC(=O)Nc1cc(Cl)ccc1Cl	-11	-36	-5.5	i	1.1	0.68	nt	-3	0.9	-7.9
O=[N+]([O-])c1ccc(Cl)c(CN2CCSCC2)c1	nt	nt	nt	nt	0.7	0.63	-1	-6	0.4	nt
CC(=O)c1cccc(NC(=O)CCCCCn2nnc3ccccc3c2=O)c1	6	9	1.8	i	0.8	0.67	-4	6	2.8	-11
COc1ccc(NC(=O)N2CCC(c3nc(-c4cccs4)no3)CC2)cc1	nt	nt	nt	nt	0.4	0.66	5	-1	2.6	nt
COc1ccc([C@H]2CC(=O)C=C(c3ccc(OC)c(F)c3)C2)cc1	-28	-24	0.7	i	-0.8	nt	nt	-2	3.1	1.2
O=C(NCc1ccccc1)C(=O)NCC(c1ccco1)N1CCN(c2ccccc2F)CC1 (centres undefined)	-10	-4	4.4	i	-0.2	0.72	-9	-1	2.9	-0.9
CCC(=O)N1CCN(c2ccccc2NC(=O)c2ccc(OC)c(Cl)c2)CC1	nt	nt	nt	nt	0.7	0.74	-3	-3	-0.1	nt
COc1ccc(N(C)C(=O)Cn2c(=O)oc3ccccc32)c(OC)c1	18	16	2.7	i	0.6	0.68	-6	-4	1.1	-4.9
CC1CCN(C(=O)c2[nH]cnc2C(=O)NCCCCCNC(=O)OC(C)(C)C)CC1	1	4	3.5	i	-0.6	0.7	nt	-2	-0.8	1.5
COc1ccc(-c2cc(C)no2)cc1S(=O)(=O)N(C)c1ccc(C)cc1	-14	-34	-12	i	-0.8	0.68	1	16	1.6	0.9
CCOc1ccccc1NC(=O)Nc1ccncc1	1	8	5.1	i	0.4	0.66	17	6	4.3	-0.5
O=C(NCc1ccccc1)/C(=C/c1ccccc1)NC(=O)c1ccco1	0	0	1.6	i	-1.2	0.68	1	-5	3.5	0.6
CCc1cccc2c(=O)c(C(=O)NCCN3CCOCC3)c[nH]c12	nt	nt	nt	nt	-0.4	0.66	1	-7	1.1	nt
CCOc1ccccc1C(=O)NC(C(=O)Nc1cccc(S(N)(=O)=O)c1)C(C)C (centres undefined)	-6	3	-3.4	i	0.4	0.7	1	-3	3.8	-0.1
NC1=NC[C@@H](Cc2ccc(O)cc2)N1CC1CCCCC1	-4	1	-3.0	i	0.4	nt	-8	-7	1.8	6.5
O=C(NC1CCCCC1)OCCN1CCN(Cc2ccccc2)CCC1=O	8	11	-1.1	i	1.7	0.65	6	-8	1.4	-1.2
CCOc1ccc(NC(=S)N2C3CCCC2CC(NC(=O)C2CC2)C3)cc1 (centres undefined)	6	6	-1.6	i	0.0	0.69	2	nt	3.0	1.2
CCOC(=O)c1cnc(Nc2nc3ccccc3o2)nc1CSC(=S)N(CC)CC	nt	nt	nt	i	-0.1	0.76	61*	19	0.8	-2.6
CSc1ncc(C(=O)Nc2ccccc2C)c(C)n1	11	7	0.5	i	1.0	0.67	0	-5	2.9	0.2
Cc1[nH][nH]c(=O)c1C(c1c(C)[nH][nH]c1=O)c1cn(C)c2ccccc12	7	-1	2.4	i	nt	0.72	nt	nt	90*	2.2
COc1ccc(S(=O)(=O)N2CCCCC2)cc1NC(=O)COC(=O)c1ccco1	nt	nt	nt	i	0.7	0.66	nt	-5	3.9	-0.2
COc1ccc(/C(O)=C2/C(=O)C(=O)N(c3ncccn3)C2c2ccc(F)cc2)cc1 (centres undefined)	nt	nt	nt	i	0.4	0.65	-9	nt	8.8	2.4
CCOc1ccc(/C=N/Nc2cc(C)nc(N3CCOCC3)n2)cc1	7	2	-0.7	i	-0.5	nt	-7	4	nt	nt
C(=N\Nc1nn[nH]n1)/c1ccccc1	13	7	0.5	i	-0.2	nt	-18	nt	nt	-0.9
CNC(=O)COC(=O)C1CCN(S(=O)(=O)c2ccc3c(c2)OCCO3)CC1	6	12	-1.9	i	-0.2	nt	nt	-2	nt	0.5
Cc1ccc(NC(=O)CSCc2cc(=O)n3cc(C)sc3n2)c(C)c1	6	5	-1.5	i	1.8	0.71	3	-4	5.5	1.0
CCCC(=O)N(Cc1cc2cc(C)ccc2[nH]c1=O)c1ccccc1OC	nt	nt	nt	nt	-0.3	0.75	16	13	-3.6	nt
CCOC(=O)c1c(NC(=O)c2cc(-c3ccc(Cl)s3)nc3ccccc23)sc(C(N)=O)c1C	nt	nt	nt	nt	-0.3	nt	-18	77*	-1.3	nt
COc1ccc(/C=N/NC(=O)c2ccn[nH]2)cc1Cn1nc(C)c([N+](=O)[O-])c1C	3	7	0.6	i	0.5	nt	4	-6	nt	-0.1
Cc1cccc(C)c1NC(=O)CN1CCN(CC(=O)c2cc(C)n(C3CC3)c2C)CC1	8	5	-1.5	i	0.4	0.66	nt	1	4.7	3.4
CC(=O)Nc1ccc(S(=O)(=O)N2CCN(S(=O)(=O)N3CCCCCC3)CC2)cc1	nt	nt	nt	nt	0.9	0.69	3	6	5.2	nt
COc1ccc(C(=O)COC(=O)CCN=C2NS(=O)(=O)c3ccccc32)cc1OC	nt	nt	nt	nt	0.9	0.7	1	1	-1.7	nt
COC(=O)C(CCCCNC(=O)OCc1ccccc1)NC(=O)CN (centres undefined)	nt	nt	nt	nt	1.5	0.76	-19	-6	-3.4	nt
Cc1ccc(OCCN(C)C(=O)C2CCC(=O)N(CC3CCCCC3)C2)cc1 (centres undefined)	2	-1	2.2	i	0.4	0.72	3	2	-1.9	2.1
CCOc1ccc(-n2c(C)cc(/C=N\NC(=O)CC(=O)NC3CCCCC3)c2C)cc1	-1	2	1.3	i	0.4	nt	7	-3	nt	2.4
COc1ccc(NC(=O)c2ccc3c(=O)n(Cc4ccco4)c(=S)[nH]c3c2)c(OC)c1	nt	nt	nt	nt	0.0	0.77	0	-5	3.2	nt
